Screening data from PubChem.
GPR55 LPI antagonism: inhibition of LPI-stimulated GPR55 beta-arrestin translocation – imaging, U2OS, beta-arrestin-GFP, LPI agonist, primary screen (AID 2013); U2OS GPR55 beta-arrestin-GFP translocation imaging, LPI antagonism; higher % means a stronger effect; inhibition, % at 10 µM; hits with a dose series show IC50 in µM; hit rate 0.13% among 290,000;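 active = spots per cell inhibited over 60%, with over 100 cells counted and total cytoplasm intensity under 500,000; inconclusive = wells with under 100 cells, flagged as likely toxic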;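 note: U2OS cells stably carrying GPR55 and arrestin-GFP stimulated by 5 µM LPI near EC80; imaged beta-arrestin-GFP aggregate spots per cell after agonist stimulation; plate controls were LPI-stimulated DMSO wells for no effect and DMSO wells without LPI for full effect; some results filed as inactive read as strong as hits; confirmed hits need IC50 under 10 µM and bright autofluorescent wells are also inconclusive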
GPR55 activation: GPR55 agonists via beta-arrestin recruitment, primary screen, imaging, U2OS cells, beta-arrestin-GFP redistribution (AID 1961). U2OS GPR55 beta-arrestin-GFP redistribution imaging; higher % means a stronger effect. hit rate 0.048% among 290,000. activation, % at 10 µM; hits with a dose series show EC50 in µM;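 active = activation above 40% with more than 50 cells counted in the well; inconclusive = wells holding fewer than 50 cells, flagged as toxic or sparse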;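 note: U2OS osteosarcoma cells stably expressing GPR55 and beta-arrestin-GFP; plate controls were DMSO negative control for no effect and LPI positive control for full effect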
T cell HTS: T cell immune modulation candidate; hit rate 0.068% among 330,000; calls only at 7 µM; 2C CD8+ T cell-vesicle binding, flow cytometry; stronger effect = lower value;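 active = response, share of CD8 T cells binding vesicles, and their 90th percentile fluorescence all below set limits, cut at about 80% in these data, passing the limit was not always enough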
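Benchmarks: naked versus QL9-loaded vesicles / Assay system: purified 2C TCR transgenic mouse naive CD8+ T cells / Technique: high-throughput flow cytometry with anti-B7-1 and anti-CD8 staining / Timing: Cell–vesicle co-incubation 1.5 h at 37 °C, staining 20 min on ice / Read-out: percent CD8+ FL2 mean versus row control / Probe or stimulus: QL9-loaded Drosophila micro-vesicles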
GPR35 antagonists: inhibition of zaprinast-stimulated GPR35 beta-arrestin translocation – imaging, U2OS, beta-arrestin-GFP, zaprinast agonist, primary screen (AID 2058) | U2OS GPR35 beta-arrestin-GFP translocation imaging, zaprinast antagonism; higher % means a stronger effect | inhibition, % at 10 µM; hits with a dose series show IC50 in µM | hit rate 0.052% among 290,000;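 active = inhibition of at least 50% with at least 30 cells and total cytoplasm GFP at most 10,000,000; inconclusive = under 30 cells or total GFP of 10,000,000 plus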
West Nile antiviral: West Nile virus antiviral activity, cell-based, CPE readout (AID 1621); hit rate 0.02% among 290,000; CPE inhibition, % at 10 µM; hits with a dose series show IC50 in µM; West Nile virus-infected cells, CPE inhibition; higher % means a stronger effect; in the data active = a potency from the dose series; inconclusive = CPE inhibition mostly from about 3.7% at the one dose, without a potency; inactive = the rest, 99 in 100 with CPE inhibition below about 2.2%; note: strong numbers were not always called active
NTR1 agonist: NTR1-driven beta-arrestin-GFP spot formation – imaging, U2OS cells, high content, primary screen (AID 493036). agonist mode. activation, % at 20 µM. hit rate 0.17% among 330,000;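 active = activation at or above 40% of the spot to cytoplasm intensity ratio, with at least 20 cells analyzed; inconclusive = wells under 20 cells, flagged as cytotoxic or low count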;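 note: 0% = DMSO without peptide and 100% = 100 nM NTR1 peptide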
Target sequence (P30989 whole entry, looked up): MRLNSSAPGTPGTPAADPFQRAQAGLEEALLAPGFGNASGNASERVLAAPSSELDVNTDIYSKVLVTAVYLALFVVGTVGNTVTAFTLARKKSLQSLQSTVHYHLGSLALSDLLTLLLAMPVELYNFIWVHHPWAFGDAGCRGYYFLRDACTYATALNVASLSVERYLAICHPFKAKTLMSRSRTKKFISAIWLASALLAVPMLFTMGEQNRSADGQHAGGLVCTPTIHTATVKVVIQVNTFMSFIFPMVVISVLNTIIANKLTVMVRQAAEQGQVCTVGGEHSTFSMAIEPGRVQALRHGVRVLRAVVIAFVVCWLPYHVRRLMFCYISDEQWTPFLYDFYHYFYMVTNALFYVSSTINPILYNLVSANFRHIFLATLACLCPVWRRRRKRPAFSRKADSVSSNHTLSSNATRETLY
T cell HTS vesicle-bound %: also measured in T cell HTS; calls as there; double positive events, %; measured here: CD8+ vesicle-bound cell fraction;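 binding gate set so that unloaded-vesicle control wells show 10% double positive cells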
NTR1 agonist cell count 20 µM: second read-out of NTR1 agonist, no call of its own (marks repeat the call); cell count; measured here: cell count, cytotoxicity flag
Starred values were filed as active, the others as inactive; i = inactive; ? = inconclusive; / = no result given; & = joins results of further samples. Not all compounds are listed; count on the stated rates, not on these rows.

Start of the data: the first 5 records, ahead of the listing:
Values in the order: GPR55 LPI antagonism	NTR1 agonist	West Nile antiviral	NTR1 agonist cell count 20 µM	GPR35 antagonists	GPR55 activation	T cell HTS vesicle-bound %	T cell HTS
> CC1(C)SC2[C@H](NC(=O)C(NC(=O)N3CCNC3=O)c3ccccc3)C(=O)N2C1C(=O)O (stereo not given in full)
→ -4%	/	/	/	8%	-0.1%	/	/
> OC[C@@H](O)[C@@H](O[C@H]1O[C@H](CO)[C@@H](O)[C@H](O)[C@H]1O)[C@H](O)[C@@H](O)CO
→ 2%	-0.7	0.2%	64	4%	-0.1%	38	i
> CC(C)COCC(CN(Cc1ccccc1)c1ccccc1)N1CCCC1 (stereo not given)
→ 3%	18	-0.2%	58	-12%	-0.5%	62	i
> CNCCCC1c2ccccc2C=Cc2ccccc21
→ 17%	-0.6	0.2%	46	-14%	0.1%	32	i
> NC(Cc1ccc(O)c([N+](=O)[O-])c1)C(=O)O (stereo not given)
→ 0%	-2.4	-0.8%	50	-10%	-0.3%	30	i

The listing (from the top)
Values in the order: GPR55 LPI antagonism	NTR1 agonist	West Nile antiviral	NTR1 agonist cell count 20 µM	GPR35 antagonists	GPR55 activation	T cell HTS vesicle-bound %	T cell HTS
> CC1(C)SC2[C@H](NC(=O)C(NC(=O)N3CCNC3=O)c3ccccc3)C(=O)N2C1C(=O)O (stereo not given in full)
→ -4%	/	/	/	8%	-0.1%	/	/
> OC[C@@H](O)[C@@H](O[C@H]1O[C@H](CO)[C@@H](O)[C@H](O)[C@H]1O)[C@H](O)[C@@H](O)CO
→ 2%	-0.7	0.2%	64	4%	-0.1%	38	i
> CC(C)COCC(CN(Cc1ccccc1)c1ccccc1)N1CCCC1 (stereo not given)
→ 3%	18	-0.2%	58	-12%	-0.5%	62	i
> CNCCCC1c2ccccc2C=Cc2ccccc21
→ 17%	-0.6	0.2%	46	-14%	0.1%	32	i
> NC(Cc1ccc(O)c([N+](=O)[O-])c1)C(=O)O (stereo not given)
→ 0%	-2.4	-0.8%	50	-10%	-0.3%	30	i
> Fc1ccc([C@@H]2CCNC[C@H]2COc2ccc3c(c2)OCO3)cc1
→ 21%	3.8&7.8&19	-0.6%&-0.6%	56&71&42	6%	-0.5%	8&43&58	i
> NS(=O)(=O)c1cc2c(cc1Cl)NC=NS2(=O)=O
→ 1%	1.3	0.5%	58	15%	0.5%	14	i
> CC(=O)Nc1ccc(S(=O)(=O)c2ccc(N)cc2)cc1
→ 6%	1.1	0.8%	67	13%	0.3%	54	i
> CCCCC[C@H](O)/C=C/[C@H]1[C@H](O)CC(=O)[C@@H]1CCCCCCC(=O)O
→ /	1.7	-0.6%	53	/	/	26	i
> OCc1ccc(O)c2ncccc12
→ -23%	1.0	1.7%	38	7%	-0.1%	55	i
> CCN(CC)CCNC(=O)c1ccc(N)cc1
→ -2%	0.8	0.2%	49	7%	0.8%	27	i
> C=CS(=O)(=O)c1ccc(Oc2ccc(S(=O)(=O)C=C)cc2)cc1
→ 70%*	66*	-0.9%	45*	2%	5.0%	36	i
> Nc1ncncc1-c1ccc([N+](=O)[O-])cc1
→ 9%	-1.3	-0.8%	36	2%	0.3%	10	i
> Nc1ccc(O)cc1
→ /	/	0.8%	/	/	/	25	i
> CCn1nc(C(=O)O)c(=O)c2cc3c(cc21)OCO3
→ -3%	-2.2	-0.4%	53	2%	-0.2%	23	i

(next part)
Values in the order: GPR55 LPI antagonism	NTR1 agonist	West Nile antiviral	NTR1 agonist cell count 20 µM	GPR35 antagonists	GPR55 activation	T cell HTS vesicle-bound %	T cell HTS
> CC(C)[C@@H]1CC[C@@H](C)C[C@H]1OC(=O)C[n+]1cc(-c2ccc(Cl)cc2)n2c1CCCCC2
→ 1%	18	0.9%	46	11%	-0.2%	22	i
> O=C1Cc2cc(CCN3CCN(c4nsc5ccccc45)CC3)c(Cl)cc2N1
→ 16%	/	/	/	-24%	0.3%	/	/
> CCS(=O)(=O)CCn1c([N+](=O)[O-])cnc1C
→ -7%	-1.1	0.1%	64	-1%	0.2%	39	i
> Cc1ccc(CN(CC(O)COc2cccc3[nH]cc(C)c23)C(C)(C)C)cc1 (stereo not given)
→ 11%	3.1	-0.2%	39	6%	0.0%	30	i
> CNCC(=O)O
→ /	-0.1	/	64	/	/	43	i
> CCN(Cc1ccncc1)C(=O)C(CO)c1ccccc1 (stereo not given)
→ -1%	-1.5	0.5%	53	-6%	-0.1%	23	i
> CCc1cc(C(N)=S)ccn1
→ -2%	-1.5&-0.8	0.6%	33&50	-7%	-0.5%	12&20	i
> OC(COc1ccc2ccccc2c1Br)Cn1ccnc1 (stereo not given)
→ 6%	1.7	0.0%	34	10%	0.0%	18	i
> NC1C2CN(c3nc4c(cc3F)c(=O)c(C(=O)O)cn4-c3ccc(F)cc3F)CC12 (stereo not given)
→ 15%	-0.5	?	49	7%	0.3%	17	i
> Nc1ncnc2c1ncn2C1O[C@H](CO)[C@@H](O)[C@@H]1O (stereo not given in full)
→ /	1.2	/	54	/	/	38	i
> CN1[C@@H]2CC(OC(=O)[C@H](CO)c3ccccc3)C[C@H]1[C@@H]1O[C@@H]12 (stereo not given in full)
→ -1%&-1%	-1.2&6.0	-0.4%&-0.7%	65&64	10%&-8%	0.2%&0.1%	16&28&36&63	i
> O=C(N/N=C(\c1ccccc1)c1ccccn1)c1cccc([N+](=O)[O-])c1
→ 26%	2.7	11%	32	-9%	-0.4%	12	i
> CN(C)c1nc(N(C)C)nc(N(C)C)n1
→ 12%	0.2	0.2%	66	-1%	0.1%	21	i
> CCOC(=O)Cc1csc(NC(=O)NC2(C(F)(F)F)Oc3cc(Cl)c(Cl)cc3O2)n1
→ -13%	-0.2	0.0%	52	0%	-0.1%	64	i

Entries of single compounds, looked up by structure.
Shown for `CC(C)[C@@H]1CC[C@@H](C)C[C@H]1OC(=O)C[n+]1cc(-c2ccc(Cl)cc2)n2c1CCCCC2` → GPR55 LPI antagonism: 1%; NTR1 agonist: 18; West Nile antiviral: 0.9%; NTR1 agonist cell count 20 µM: 46; GPR35 antagonists: 11%; GPR55 activation: -0.2%; T cell HTS vesicle-bound %: 22; T cell HTS: i
Shown for `CCn1nc(C(=O)O)c(=O)c2cc3c(cc21)OCO3` → GPR55 LPI antagonism: -3%; NTR1 agonist: -2.2; West Nile antiviral: -0.4%; NTR1 agonist cell count 20 µM: 53; GPR35 antagonists: 2%; GPR55 activation: -0.2%; T cell HTS vesicle-bound %: 23; T cell HTS: i
Shown for `Cc1ccc(CN(CC(O)COc2cccc3[nH]cc(C)c23)C(C)(C)C)cc1` (stereo not given) → GPR55 LPI antagonism: 11%; NTR1 agonist: 3.1; West Nile antiviral: -0.2%; NTR1 agonist cell count 20 µM: 39; GPR35 antagonists: 6%; GPR55 activation: 0.0%; T cell HTS vesicle-bound %: 30; T cell HTS: i
